Source: PubChem BioAssay
Menin MLL FP FL = displaces fluorescein MLL peptide from human menin. Fluorescence polarization, fluorescein-MLL peptide displacement from menin. FP activity change, % at 61.4 µM. 290,000 tested, under 10 active; inconclusive = falling polarisation curve, or a change in total fluorescence; inactive = total fluorescence flat and polarisation flat or rising; no compound was filed as active; the % refers to the polarisation; negative = inhibition;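 further: % of control where 0% means no effect; inhibitors lower the polarisation; unlabelled MLL peptide was the positive control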
TRPV1 PAM = enhances activation of the human vanilloid receptor TRPV1; AID 540277; Q8NER1; TRPV1-expressing cells, Fluo-8 calcium influx, capsaicin EC20 potentiation; host cell line not named in the record; control for the full effect not named in the record; 0.02% of 320,000 active; potentiation, % at 8.33 µM; active means potentiation above 80%; inconclusive means 30% to 80%; inactive means below 30%; further: 0% is about no effect
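Cells expressing TRPV1 were dye-loaded with Fluo-8 and read kinetically: 10 s baseline, 3 min after compound (agonist portion), then 2 min after EC20 capsaicin (allosteric enhancer portion). Calcium-bound dye fluorescence at 480/520 nm.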
Sfp PPTase inh = Sfp phosphopantetheinyl transferase inhibition. 3.5% of 310,000 active. Biochemical Sfp PPTase activity, qHTS. Q9F4F7. Potency, µM, for the others: max response, negative = inhibition, most hits filed as inhibitors; active means well fitted inhibition curve with a large enough effect; inconclusive means small, poorly fitted or top-dose-only effect, or another doubt; inactive means no such curve, though single readings can be large or run the other way;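 further: the enzyme is Sfp with the accession as filed and its product quenches rhodamine fluorescence; potency means the concentration at half of the fitted maximal effect; 0% = enzyme reaction without inhibitor and -100% = no enzyme wells; top concentration of the series not given in the record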
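Sfp 15 nM + cpd, 15 min RT; start w/ rhodamine-CoA 5 uM, BHQ-2-YbbR 12.5 uM (final); 50 mM Hepes pH 7.6, 10 mM MgCl2, 0.01% NP-40, 0.01% BSA; read 525/598 nm at 0 and 30 min.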
ClpP mod = qHTS Assay for Activators of ClpP | ATP-dependent Clp protease proteolytic subunit (Bacillus subtilis (strain 168)), P80244 | purified B. subtilis ClpP, FRET peptide cleavage, 20 min | Potency, µM (doses to about 57.5 µM), for inactives: at the highest dose activity change, negative = active | 1.9% of 340,000 active | AID 651965, 2013; active = well fitted falling curve with a large enough effect; inconclusive = small, poorly fitted or top-dose-only effect; inactive = no such curve, though single readings can be large or run the other way; further: potency means the concentration at half of the fitted maximal effect; the source files actives as falling curves though it sought activators and does not explain the sign; nearly all actives have a fitted effect of over 65% in size; many hits overshoot -100%
Target sequence (P80244 whole entry, looked up): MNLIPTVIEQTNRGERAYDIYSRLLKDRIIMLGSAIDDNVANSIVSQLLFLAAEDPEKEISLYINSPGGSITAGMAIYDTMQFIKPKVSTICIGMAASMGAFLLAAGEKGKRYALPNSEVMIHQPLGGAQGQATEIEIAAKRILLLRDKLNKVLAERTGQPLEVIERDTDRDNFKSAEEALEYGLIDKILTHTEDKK
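ClpP 10 microg/mL final, pH 8 Tris/KCl buffer with BSA, glycerol, Tween-20; compound pinned in; FRET-FV substrate; RT 20 min; Ex320/Em430; ΔFRET vs ADEP 5.8 microM, DMSO, no enzyme.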
PINK1 expr mod = PINK1 expression modulation; Potency, µM (top dose mostly 76.6 µM), for the others: at the highest dose activation (PINK1 increase), hits mostly activators; 0.2% of 410,000 active; PINK1 immunofluorescence, high-content cytometry, 24 h; AID 624263; active = well fitted activation curve with a large enough effect; inconclusive = small, poorly fitted or top-dose-only effect; inactive = flat fitted curve, though single readings scatter; cell line not stated here;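 further: potency means the concentration at half of the fitted maximal effect; % of control where 0% means no effect; nearly all actives have a fitted effect of over 65% in size; a mitochondrial uncoupler was the plate control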
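Decision-based qHTS: stable cells, 24 h exposure to five compound concentrations, CCCP as control. Fixed cells stained for PINK1 plus nuclear, mitochondrial and cell markers, cytometer read.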
TRPML1 inh = inhibitors of human TRPML1 channel; AID 624415; Q9GZU1; activity change, negative = inhibition, % (no concentration beside the values); TRPML1-inducible cells, Ca2+ dye fluorescence, FDSS; active compounds read low; inhibition of EC80 agonist-evoked calcium signal; 0.02% of 390,000 active; in the data active means activity change below about -50%; inconclusive means about -30% to -50%; inactive means above about -30%;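 further: stimulus is agonist 54-4 at its EC80 concentration; on the % scale 0 is the no-effect control and ±100 the full control effect; compound concentration not given in the record; the text of the record puts the active cut at -80%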
Target sequence (Q9GZU1 whole entry, looked up): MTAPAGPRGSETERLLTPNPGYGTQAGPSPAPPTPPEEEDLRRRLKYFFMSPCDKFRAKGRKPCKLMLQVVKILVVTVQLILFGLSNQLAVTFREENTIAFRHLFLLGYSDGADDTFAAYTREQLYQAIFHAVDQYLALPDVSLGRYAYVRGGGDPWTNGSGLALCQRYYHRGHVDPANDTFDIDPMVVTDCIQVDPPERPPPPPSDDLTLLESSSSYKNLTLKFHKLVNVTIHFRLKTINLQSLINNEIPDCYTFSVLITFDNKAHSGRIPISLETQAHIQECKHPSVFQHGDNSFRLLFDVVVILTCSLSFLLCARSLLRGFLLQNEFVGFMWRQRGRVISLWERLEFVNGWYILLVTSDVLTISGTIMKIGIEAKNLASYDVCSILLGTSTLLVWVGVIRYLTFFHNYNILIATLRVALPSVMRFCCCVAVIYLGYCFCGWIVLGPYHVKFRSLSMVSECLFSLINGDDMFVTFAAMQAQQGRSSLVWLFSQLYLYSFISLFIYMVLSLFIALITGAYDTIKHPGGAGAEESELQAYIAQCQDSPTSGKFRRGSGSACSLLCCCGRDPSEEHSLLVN
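TRPML1-DL cells, Tet-induced overnight (~16 h, 37 °C) at 1,500 cells/well, were loaded with Ca8 no-wash dye plus quencher for 45-90 min at room temperature. Compounds were pinned during FDSS kinetic reading; agonist 54-4 at EC80 (4 uM final) then added.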
TRPML1 ag = activates the human TRPML1 channel. Q9GZU1. TRPML1-expressing cells, Ca2+ dye fluorescence, FDSS; host cell line not named in the record; reference of the full effect not given here. 0.12% of 410,000 active. activation, % (concentration not given with the values); in the data active = activation above about 50%; inconclusive = about 30% to 50%; inactive = below about 30%; further: 0% is about no effect; the text of the record puts the active cut at 80%
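Tet-induced TRPML1-DL cells, 1,500 per well, cultured overnight, were loaded with a no-wash Ca2+ dye for 45–90 min. Calcium fluorescence was recorded on the FDSS for 110 s after compound addition, before the EC80 agonist (4 uM 54-4) was added.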
The depositor's hits bear a star; ? = inconclusive; / = no result given; [ ] = remark or other dose. An unsorted share of the library (roughly 4.4% active in at least one column).

compound	ClpP mod	TRPML1 ag	Sfp PPTase inh	Menin MLL FP FL	TRPV1 PAM	TRPML1 inh	PINK1 expr mod
CN(CC(=O)NCc1ccco1)S(=O)(=O)c1ccc2c(c1)n(C)c(=O)c(=O)n2C	?	0.3	-7%	3.7	-13	4	-4.6%[38.3 µM]
Cc1ccnc(NS(=O)(=O)c2ccc(NC(=O)c3ccc(S(=O)(=O)N(C)C)cc3)cc2)n1	0.4%	0.5	11%	0.3	3	-1	0.3%
CC(NCc1ccc(S(N)(=O)=O)cc1)C(=O)N1c2ccccc2CC1C (stereo not given)	-3.0%	/	-3%	-0.8	-5	/	-0.1%
COc1cccc(NC(=O)C(=O)NCC(c2ccco2)N2CCc3ccccc3C2)c1 (stereo not given)	-2.3%	-0.2	/	/	-1	-26	-0.9%
CC1=Nc2ccccc2/C1=C/c1ccc(N(C)C)cc1	-8.1%	-0.2	/	/	/	/	-0.1%
CCN1CCC(N2CCN(c3ccc(Cl)cc3)CC2)CC1	-1.8%	/	14%	10	-6	/	0.3%
CC[C@@H](C)[C@H](NS(=O)(=O)c1ccc(C)cc1)C(=O)N1CCC(C(=O)NCC(=O)O)CC1	-1.0%	-0.4	0%	-2.9	11	-5	2.3%
O=C(CSc1ccc(Cl)cc1)NN=C1CCCCCC1	/	0.0	13%	2.5	-12	5	3.2%
CCC(CC)CN1CCN=C1N(C)C	1.5%	-0.1	5%	4.8	13	-2	-0.3%
CC(=O)c1cccc(NC(=O)CCC(=O)Oc2ccc(C)cc2)c1	0.9%	-0.6	5%	4.8	-8	-3	-0.3%
CCC(NC(=O)N(Cc1ccccc1)Cc1ccc2c(c1)OCO2)(C(F)(F)F)C(F)(F)F	-1.5%	-0.7	-1%	1.3	-7	-8	-1.7%
COc1ccccc1NC(=O)CSCc1nc2ccccc2[nH]1	-16%	0.6	-2%	-1.3	2	-15	2.2%
COCCn1c(C)cc(C(=O)COC(=O)c2cc3c(s2)CCC3)c1C	-7.1%	1.4	2%	7.9	-7	-6	-0.9%
Cc1ccc(C(=O)Nc2cccc(-c3ccc(N4CCOCC4)nn3)c2)cc1[N+](=O)[O-]	1.8%	-0.3	/	/	15	27	3.4%
COc1ccccc1CNc1nc2nc3c(c(=O)n2[nH]1)CCC3	-2.7%	-0.5	13%	1.2	3	-1	?
CC(C(=O)O)C(=O)O	-1.0%	1.2	/	/	7	7	3.4%
O=C(/C=C/c1ccco1)NC(=S)Nc1cc(-c2nc3ccccc3s2)ccc1Cl	0.9%	-0.6	?	?	-8	5	1.2%
CCC(=O)NC(c1ccc(OC)cc1)c1c(O)ccc2ccccc12 (stereo not given)	4.5%	0.8	0%	3.2	5	-12	7.1%
CCOc1ccc(NC(=O)[C@@H]2CCC(=O)N2C2OC(=O)c3ccccc32)cc1 (stereo not given in full)	2.7%	/	0%	-5.2	-11	/	0.1%
O=C(CN(CC1CCCO1)C(=O)CCC(=O)Nc1nccs1)NCc1ccccc1 (stereo not given)	-1.9%	0.6	9%	2.2	3	44	-1.0%
CC1Cc2ccccc2N1C(=O)c1cnc2ccccn2c1=O (stereo not given)	-1.4%	-0.1	9%	1.8	21	0	?
O=C(CCc1ccccc1)NC(=S)Nc1ccccc1Br	-0.2%	3.0	2%	3.3	-5	-15	-0.9%
O=C(NNc1ncnc2c1cnn2-c1cccc(Cl)c1)c1ccco1	1.2%	-0.6	-5%	-1.2	14	-11	0.3%
Cc1ccc2oc(=O)c(-c3nc(-c4cccs4)no3)cc2c1	-17%	-0.8	/	/	/	-3	0.8%
CNC(=S)N/N=C(\C)c1ccc(C(C)(C)C)cc1	-3.0%	-0.2	-15%	-2.5	-22	20	11%
CCCC(=O)N1CCN(c2nc3ccc(F)cc3s2)CC1	1.1%	1.9	/	/	/	13	0.8%
COc1ccc(CCN2C(=O)CN(C3CCCCCC3)C(=O)C2c2ccc(OC(C)C)c(OC)c2)cc1OC (stereo not given)	-2.9%	-0.8	/	/	/	-9	2.3%
CN(c1ccc(C(=O)COC(=O)C2CC2)cc1)S(C)(=O)=O	1.0%	0.9	/	/	/	12	3.8%
CC(C)[C@H](N)c1nnc2n1N=C(c1ccc(Cl)cc1)CS2	0.6%	/	7%	0.7	-13	/	0.1%
CCSc1cc(C)nc2ncnn12	0.4%	0.4	4%	-1.1	19	-2	-1.7%
Cc1cc2cc(CN(Cc3cccs3)Cc3nnnn3CC3CCCO3)c(=O)[nH]c2cc1C (stereo not given)	-11%	-0.7	-19%	1.9	1	22	1.4%[38.3 µM]
CCOC(=O)N1CCC(NS(=O)(=O)c2ccc3c(c2)C(C)(C)C(=O)N3C)CC1	-0.1%	-0.5	20%	5.4	1	-13	-0.8%
CCC(CC)C(=O)Nc1c2cnn(-c3ccccc3)c2nc(=O)n1-c1ccccc1	-6.5%	-0.1	13%	2.2	14	-3	0.0%
O=S(=O)(c1ccccc1)N1CCN(CCO)CC1	1.2%	1.1	-3%	-1.6	-1	18	3.9%
Cc1nc2c(c(C)c1CCC(=O)NCc1ccccc1)c(=O)n(C)c(=O)n2C	-7.5%	-0.6	/	/	/	-2	0.7%
COc1ccc(NC(=O)CCCN2C(=O)CCn3nc(-c4cn(C)c5ccccc45)cc32)cc1	3.0%	0.8	/	/	/	2	2.5%
CN1CCN(S(=O)(=O)c2ccc(N(C)Cc3ccc(C(F)(F)F)cc3)c([N+](=O)[O-])c2)CC1	0.8%	?	/	/	-12	1	0.5%
CCN1CCc2nc3sc(C(=O)Nc4cccnc4Cl)c(N)c3cc2C1	-20%	1.0	-20%	/	-11	-11	9.2%
Cc1nc(NCc2ccco2)c(C#N)c2c1COC(C)(C)C2	?	-1.1	20%	-1.3	8	-9	0.4%
Cc1c(NC(=O)C(=O)/C=C(/O)c2ccccc2)c(=O)n(-c2ccccc2)n1C	1.8%	0.1	-6%	-0.7	-11	-9	0.0%
Cc1ccc(C(=O)NNC(=O)CSc2nnc(CNc3ccc(F)cc3)n2C)cc1	/	/	-2%	-3.6	-3	/	/
OCCN(CC#CC(O)(c1ccccc1)c1ccccc1)CCO	-1.3%	0.1	6%	2.1	9	-19	0.3%
CCCn1c2ccccc2c2cnn(CC(=O)NCCOC)c(=O)c21	3.0%	0.9	13%	-6.7	-4	-9	-0.3%
CC1CCCCN1S(=O)(=O)c1ccc(C(=O)N(CCCN(C)C)c2nc3ccc(Br)cc3s2)cc1 (stereo not given)	-1.5%	-0.1	50µM*	-5.3	-4	-22	-1.9%
C[C@@]12CCC=C[C@H]1[C@H](c1ccc(C(F)(F)F)cc1)N(Cc1ccccc1)C2=O	-2.5%	1.6	-6%	0.4	24	15	19%
COc1cc(OC)c(NC(=O)Cn2c(=O)c(C(F)(F)F)nc3ccccc32)cc1Cl	-1.6%	-0.4	/	/	/	1	-0.2%
O=C(Nc1ccccn1)c1onc2c1CCCC2	-2.7%	-0.5	-4%	1.2	-9	7	13%
COC(=O)c1cc2ccccc2oc1=O	20µM*	-0.9	8%	3.9	-3	16	-2.5%
O=C(c1ccc(CSc2nc3ccncc3n2Cc2cccc(F)c2)cc1)N1CCCCCC1	-4.9%	0.5	/	/	/	1	-1.3%
CCn1c2ccccc2c2cc(CN3CCN(Cc4cc(OC)ccc4O)CC3)ccc21	/	0.4	50µM*	4.9	-7	-9	1.2%

3 entries from above, field by field:
COc1ccc(CCN2C(=O)CN(C3CCCCCC3)C(=O)C2c2ccc(OC(C)C)c(OC)c2)cc1OC (stereo not given)
  ClpP mod: -2.9%
  TRPML1 ag: -0.8
  Sfp PPTase inh: /
  Menin MLL FP FL: /
  TRPV1 PAM: /
  TRPML1 inh: -9
  PINK1 expr mod: 2.3%

CN(c1ccc(C(=O)COC(=O)C2CC2)cc1)S(C)(=O)=O
  ClpP mod: 1.0%
  TRPML1 ag: 0.9
  Sfp PPTase inh: /
  Menin MLL FP FL: /
  TRPV1 PAM: /
  TRPML1 inh: 12
  PINK1 expr mod: 3.8%

CC(C)[C@H](N)c1nnc2n1N=C(c1ccc(Cl)cc1)CS2
  ClpP mod: 0.6%
  TRPML1 ag: /
  Sfp PPTase inh: 7%
  Menin MLL FP FL: 0.7
  TRPV1 PAM: -13
  TRPML1 inh: /
  PINK1 expr mod: 0.1%

Next part.
compound	ClpP mod	TRPML1 ag	Sfp PPTase inh	Menin MLL FP FL	TRPV1 PAM	TRPML1 inh	PINK1 expr mod
Cc1ccc(N(CC(=O)NC2CCCC2)C(=O)c2ccc(C)s2)cc1	2.7%	0.9	-11%	1.9	9	14	-1.0%
CC(=O)c1cccc(NC(=O)C2(c3ccccc3)CC2(Cl)Cl)c1 (stereo not given)	/	-0.3	-4%	0.3	2	26	0.6%
CC(=O)c1cccc(NC(=O)Nc2csc3c2CCCC3)c1	2.7%	-0.8	-3%	1.5	-9	-1	11%
Cc1cc2c(SCC(=O)NC3CCCC3)ncnc2s1	/	-0.1	13%	/	-9	-6	7.2%
COc1ccccc1NC(=O)Cn1c(SCC(=O)N(C)c2ccccc2)nc2ccccc21	-3.2%	-0.9	/	/	/	4	1.0%
COc1cc(OC)c(/C=C/c2c3ccccc3cc[n+]2C)c(OC)c1	-1.2%	-0.4	/	/	/	/	?
CCc1cc(C(=O)Nc2nc(-c3ccccn3)cs2)sc1C	-6.2%	-0.3	/	/	3	-12	4.4%
Cc1c(C)n(C)c2ccc(C(=O)NCc3cccc(F)c3)cc12	-16%	2.1	/	/	/	13	-0.4%
c1cc(-c2ccc(CN3CCOCC3)cc2)n2ccnc2c1	4.2%	0.0	/	/	/	-6	-0.4%
O=S(=O)(c1c(Cl)cc(Br)cc1Cl)N1CCN(C(=S)NC2CC2)CC1	/	-0.4	/	/	/	-9	-1.0%
CCOc1ccccc1NC(=O)c1ccc(S(=O)(=O)N(C)C)cc1	-4.0%	0.2	-5%	-0.4	-2	-7	/
COc1ccc(CCNC(=O)c2ccc(Cl)cc2)cc1OC	-3.2%	-0.2	13%	3.6	-23	4	-1.3%
